Resorufin fluor: qHTS Assay for Spectroscopic Profiling in Resorufin Spectral Region; Compound fluorescence, resorufin region 547/598 nm, buffer; active compounds read high; max dye-equivalent concentration, M; 59,000 tested, 0.04% active; active = above 10 nM dye equivalent; inconclusive = 1 to 10 nM; inactive = 1 nM or less; a few of its hits are not listed in these tables; also: highest value over a series up to 38 µM
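Read-out: intrinsic compound fluorescence at ex 547/em 598 nm after 15 min at RT in pH 8.0 Tris (100 mM). Values expressed as resorufin-equivalent concentration from per-plate standard series.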
A647 autofl: qHTS Assay for Spectroscopic Profiling in A647 Spectral Region; Compound fluorescence, A647 channel (570/671 nm), Tris buffer; max dye-equivalent concentration, M; 59,000 tested, under 10 active; active means above 1 µM dye equivalent; inconclusive means 0.1 to 1 µM; inactive means 0.1 µM or less;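 also: values scaled relative to a standard on each plate; highest value over a series up to 38 µM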
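Spectral profiling of library compounds in pH 8.0 Tris: 15 min room-temperature incubation, single ex/em pair (570/671 nm), response normalized to Alexa 647 equivalents.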
A488 fluor: qHTS Assay for Spectroscopic Profiling in A488 Spectral Region | compound autofluorescence, A488 spectral region, dye equivalency; active compounds read high | max dye equivalency, M | 59,000 tested, 0.1% active | AID 591, 2007; active = above 10 nM dye equivalent; inconclusive = 1 to 10 nM; inactive = 1 nM or less; about half of its hits are not listed in these tables;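 also: highest value over a series up to 38 µM; compound alone in buffer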
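Spectroscopic profiling in the A488 region: compounds in pH 8.0 Tris (100 mM), 15 min RT, CCD imaging with 480 nm excitation and 540 nm emission; responses normalized against A488 dye standards.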
AID923: qHTS Assay for Allosteric/Competitive Inhibitors of Caspase-1: Spectroscopic Profiling in AFC Spectral Region. compound fluorescence, AFC spectral region (405/520 nm); almost no hit is shown here. Potency, µM (highest dose often 57.5 µM), without a hit: at the top dose fluorescence increase, hits mostly activators. 75,000 tested, 1.1% active; active = well fitted activation curve with a large enough effect; inconclusive = small, poorly fitted or top-dose-only effect;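 also: potency is read from the fitted curve at half-maximal effect; 0% is about no effect; scaled to a free AFC standard on each plate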
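Titrations up to 57 uM read every 20 sec for 3 min (405/520 nm) with 50 nM caspase 1 and 5 uM Ac-WEHD-AFC, pH 7.5 HEPES buffer. Fluorescence-vs-time intercept gave baseline, scaled against on-plate AFC standard.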
TSHR ag: qHTS Assay for Agonists of the Thyroid Stimulating Hormone Receptor | 73,000 tested, 0.48% active | Potency, µM (titrated, usually from 57.1 µM), for inactives: at the top dose activation, hits mostly activators | AID 926, 2007 | Thyrotropin receptor (Homo sapiens), P16473 | HEK293-CNG-TSHR cells (CNG channel as cAMP sensor), membrane potential dye, cAMP; active = well fitted activation curve of enough size with the parental cells flat; inconclusive = any curve in the parental cells; inactive = parental cells flat and receptor cells flat or falling; also: potency is read from the fitted curve at half-maximal effect; % of control where 0% means no effect; weak receptor curves with flat parental cells got no call and are not listed
Target sequence (P16473 whole entry, looked up): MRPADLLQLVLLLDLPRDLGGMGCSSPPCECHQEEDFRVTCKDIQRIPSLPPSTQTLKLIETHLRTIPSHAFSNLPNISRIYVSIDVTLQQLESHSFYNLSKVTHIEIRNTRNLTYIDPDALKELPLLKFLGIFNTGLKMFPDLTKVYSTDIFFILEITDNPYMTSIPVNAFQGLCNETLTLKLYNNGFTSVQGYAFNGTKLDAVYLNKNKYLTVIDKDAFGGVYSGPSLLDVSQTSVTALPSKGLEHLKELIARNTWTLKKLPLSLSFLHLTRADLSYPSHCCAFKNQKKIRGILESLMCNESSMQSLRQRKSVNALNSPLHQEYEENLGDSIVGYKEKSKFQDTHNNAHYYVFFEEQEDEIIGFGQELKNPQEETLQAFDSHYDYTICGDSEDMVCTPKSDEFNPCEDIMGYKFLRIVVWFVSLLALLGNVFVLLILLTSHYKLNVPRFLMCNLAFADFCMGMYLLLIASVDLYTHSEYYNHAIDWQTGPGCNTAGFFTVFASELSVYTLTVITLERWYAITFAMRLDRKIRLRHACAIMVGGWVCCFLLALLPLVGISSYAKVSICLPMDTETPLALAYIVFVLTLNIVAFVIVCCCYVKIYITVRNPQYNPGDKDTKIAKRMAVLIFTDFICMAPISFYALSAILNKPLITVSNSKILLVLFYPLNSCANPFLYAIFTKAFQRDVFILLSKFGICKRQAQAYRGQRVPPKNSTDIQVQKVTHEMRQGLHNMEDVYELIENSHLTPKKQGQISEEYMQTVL
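HEK 293 cells stably expressing TSHR and a modified CNG channel, with CNG-only parental cells as counterscreen, were preloaded 60 min at room temperature with membrane potential dye containing 100 uM RO 20-1724. Compound exposure was 30 min, and depolarization was read as fluorescence at 590 nm.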
Numbers without * were called inactive; i = inactive; ? = inconclusive; / = not tested or not shown; [ ] = dose if it differs, or a comment.

SMILES | Resorufin fluor | A647 autofl | A488 fluor | AID923 | TSHR ag
CCOC(=O)c1ccc(Nc2ncnc3nc[nH]c23)cc1 | i | 2.6e-08 | i | -0.9% | 2%[11.4 µM]
CCOC(=O)N1CCC(NC(=O)CCN2C(=O)C3C4C=CC(C4)C3C2=O)CC1 (configuration not stated) | i | 1.5e-08 | i | 0.5% | 2%
Cn1nnnc1SCC(=O)N1c2ccccc2Sc2ccc(Cl)cc21 | i | 4.6e-08 | i | 2.9% | 17%
O=C1C2C3C=CC(C3)C2C(=O)N1c1cccc2cccnc12 (configuration not stated) | / | / | / | 1.0% | ?
Nc1nc(SCC(=O)NCc2ccccc2)n[nH]1 | i | 2.2e-08 | i | -3.1% | 2%
CCOC(=O)N1CCN(C2CC(=O)N(c3ccc(C)cc3)C2=O)CC1 (configuration not stated) | i | 1.2e-08 | i | -1.9% | -2%
Cc1ccc(S(=O)(=O)N2CCN(C(=O)c3cccc(F)c3)CC2)cc1 | i | 2.5e-08 | i | 0.6% | -4%
O=C(N/N=C1/C[C@@H](O)[C@@H](O)[C@@H]2[C@@H]3C(=O)N(c4cccc(Oc5ccccc5)c4)C(=O)[C@H]3CC[C@@H]12)OCc1ccccc1 | / | / | / | -2.5%[11.5 µM] | 8%[11.4 µM]
CC1(C(=O)O)CCC(C(=O)Nc2ccccc2)C1(C)C (configuration not stated) | i | 3.7e-09 | i | -0.1% | -3%
Cn1nnnc1SCC(=O)Nc1ccccc1Cl | i | 5.2e-08 | i | -1.8% | -6%
O=C1CC(Sc2nnnn2C2CCCCC2)C(=O)N1c1ccccc1 (configuration not stated) | i | 4.3e-08 | i | 2.0% | /
Nc1cc(N)nc(SCC(=O)Nc2ccc(Br)cc2Cl)n1 | i | 1e-09 | i | -1.0% | -15%
COc1c(Cl)cc(-c2noc(C)c2C(=O)NCc2ccc3c(c2)OCO3)cc1Cl | / | / | / | 3.2% | 27%
Cn1cc(/C=N/n2cnc3scc(-c4ccc(Cl)cc4)c3c2=O)c2ccccc21 | i | 4.3e-09 | i | 5.7% | 9%
CN(C)CCCCl | / | / | / | 3.2% | -1%
C/C(=C1/SC(N2CCOCC2)=NC1=O)c1ccc(Cl)cc1 | i | 1e-09 | i | 1.6% | 4%
COc1ccc(-c2ccc(SCC(=O)N3CCOCC3)nn2)cc1OC | i | 2.5e-09 | i | 1.2% | -3%
CCCOCC(O)COc1ccccc1C(=O)N1CCOCC1 (configuration not stated) | i | 8.8e-09 | i | 2.1% | 9%
Cc1nc(N2CCN(S(=O)(=O)c3ccc(F)cc3)CC2)c2c(C)c(C)sc2n1 | i | 4.5e-09 | i | -1.3% | -1%
Cc1cccc(-c2cc3nc(C)cc(NCCCN(C)C)n3n2)c1 | i | 1e-09 | i | 3.4% | 8%[11.4 µM]
CC(C)NC(=O)N1CC[C@@]2(CCCN(C(=O)c3cnccn3)C2)C1 | i | 1e-09 | i | 3.4% | 0%
COC(=O)c1cc(COC(=O)c2ccc(OC)c(S(=O)(=O)N3CCCC3)c2)oc1C | i | 1e-09 | i | -0.1% | ?
Clc1cc(Cl)c2nc(N3CCOCC3)sc2c1 | i | 3.3e-08 | i | -1.3% | 3%
COCc1cc(C)nc(SCC(=O)Nc2ccc3c(c2)OCO3)c1C#N | i | 5.7e-09 | i | -0.8% | 5%
COc1cc2c(cc1OC)-c1cc(NC3CCCC3)nc(=O)n1CC2 | i | 5e-09 | i | 2.5% | /
Additional results follow.
SMILES | Resorufin fluor | A647 autofl | A488 fluor | AID923 | TSHR ag
Cc1cccc(CNc2ncncc2-c2ccc3c(c2)OCO3)c1 | i | 2.1e-09 | i | 0.3% | ?
COCc1n[nH]c(=S)n1-c1cccc2ccccc12 | i | 4.5e-09 | i | / | /
CC(=O)NCC(=O)N(Cc1ccco1)C1(C(=O)NC2CCCCC2)CCCCC1 | i | 1.1e-08 | i | -0.4% | ?
COc1ccc(CCNS(=O)(=O)c2cn(C)c(=O)n(C)c2=O)cc1OC | / | / | / | 3.8% | ?
CCCCC(=O)Nc1nnc(C)s1 | i | 1e-09 | i | -1.8% | -3%
Fc1ccc(Nc2nc(-c3cccnc3)nc3ccccc23)cc1 | i | 3.3e-09 | i | -0.8% | /
C/C=C/c1ccc(OCCCNCC(C)O)c(OC)c1 (configuration not stated) | i | 2.9e-08 | i | 1.2% | 14%
Cc1ccccc1Cn1nnc(C(=O)Nc2cccc(C)c2C)c1N | i | 2.4e-08 | i | -0.7% | -4%[11.4 µM]
O=C(CSc1nc2c(c(=O)n1-c1ccc(Br)cc1)SCC2)NCc1ccco1 | i | 1e-09 | i | -0.4% | ?
COc1ccc(S(=O)(=O)Nc2ccc(S(=O)(=O)Nc3nc(C)cc(C)n3)cc2)cc1OC | i | 6.4e-09 | i | -1.7% | ?
CNc1ccnc(-c2ccccc2OC)n1 | i | 2.1e-08 | i | 2.9% | 8%
CCOC(=O)c1cnc(-n2nc(C)cc2C)nc1NC1CCCCC1 | i | 4.7e-08 | i | -0.5% | 5%
CCOC(=O)c1sc2nc(CSCC(=O)OCc3ccc(C(=O)OC)o3)[nH]c(=O)c2c1C | i | 2.4e-08 | i | 5.8% | 3%
CN(C1CCCCC1)S(=O)(=O)c1ccc(NC(=O)C2CCCCC2C(=O)O)cc1 (configuration not stated) | i | 4.7e-09 | i | 0.3% | 1%
Cc1cc(NC(=O)Cn2nc(C(F)(F)F)c3c2CCC3)no1 | i | 1e-09 | i | -1.5% | 1%
Cc1onc(-c2ccccc2Cl)c1C(=O)Nc1ccc(-n2nncc2-c2ccco2)cc1 | i | 3.2e-09 | i | -3.3% | 6.3µM*
COc1ccccc1-c1ccc(Nc2cccc(C(C)=O)c2)nn1 | i | 1e-09 | i | 2.7% | 1%
COc1cc(OC)cc(-c2nc(N)n[nH]2)c1 | i | 1e-09 | i | -1.0% | 8%
CN1C(=O)CC(N2CCN(c3ncccn3)CC2)C1=O (configuration not stated) | / | / | / | 2.9% | -3%
CCC(OC(=O)c1cccs1)C(=O)NC1CCCCC1 (configuration not stated) | i | 5.9e-08 | i | 2.5% | -5%
COc1ccccc1N1CCN(C(=O)c2sc3nc(-c4ccc(F)cc4)cn3c2C)CC1 | / | / | / | -3.3% | ?
C=CCN1C(=O)CN=C1NCc1ccccc1 | i | 4.1e-09 | i | -0.6% | -4%
CCCn1c(NC(=O)c2ccccc2)nc2ccccc21 | i | 1.3e-08 | i | -1.9% | ?
Cn1cc(SCC(=O)Nc2nc3ccccc3s2)c2ccccc21 | i | 1e-09 | i | -1.2% | ?
COC(=O)N1CCC2(CCN(C(=O)Nc3cccc(C#N)c3)CC2)CC1 | i | 3.1e-09 | i | 0.5% | -6%
Continuation:
SMILES | Resorufin fluor | A647 autofl | A488 fluor | AID923 | TSHR ag
COC(=O)CC1=C(C(=O)OC)C(c2cccc(OCC(N)=O)c2)C(C#N)=C(N)O1 (configuration not stated) | i | 1e-09 | i | / | /
O=C(CSc1nnc2ccccn12)c1ccc2c(c1)OCCO2 | i | 7e-09 | i | -0.8% | 2%[11.4 µM]
Cc1ccc(NC(=O)N2CCC(c3nc4c(nnn4Cc4cccc(Cl)c4)c(=O)[nH]3)CC2)cc1 | i | 4.5e-08 | i | -2.1% | 11%
O=C(NCc1ccco1)c1cc2sccc2n1Cc1ccc(F)cc1 | i | 6.9e-09 | i | -0.8% | ?
Cc1cccc(CNc2ncnc3ccc(-c4cccc(NS(C)(=O)=O)c4)cc23)c1 | i | 1.3e-08 | i | -1.3% | /
COC(=O)c1cccc(NC(=O)c2ccc(S(=O)(=O)N3CCN(C)CC3)cc2)c1 | i | 6e-09 | i | -0.9% | -2%
O=C(Nc1ccc(S(=O)(=O)C(F)F)cc1)c1cccc(S(=O)(=O)N2CCOCC2)c1 | i | 1.6e-08 | i | 0.9% | -6%
COc1ccc(CCNC(=O)c2ccncc2)cc1OC | / | / | / | 1.5% | 3%
CCN1CCN(c2nc3ccccc3nc2C(C#N)C(=O)OCc2ccccc2)CC1 (configuration not stated) | i | 6.6e-09 | i | 15% | ?
CC(=O)c1ccc(NC(=O)CSCCO)cc1 | i | 7.4e-08 | i | -1.6% | 0%
CCCn1c(NCc2ccc3c(c2)OCO3)nc2ccccc21 | / | / | / | -1.0% | 14%
COC(=O)C1CCN(C(=O)c2ccc(NC(C)=O)cc2)CC1 | / | / | / | 2.6% | ?
COc1ccc(C2CC(c3cc(OC)ccc3OC)n3nnnc3N2)cc1 (configuration not stated) | i | 3.3e-09 | i | 2.6% | ?
COc1ccc(OC)c(S(=O)(=O)N2CCC(C(=O)NCCC3=CCCCC3)CC2)c1 | i | 1e-09 | i | 5.1% | 17%
CC(=O)NCC1=C(NC(C)=O)C2CC1C(C)(C)C2C (configuration not stated) | i | 1e-09 | i | -0.5% | -3%
C=CCN(C(=O)CCC(=O)Nc1cc(C)on1)C(C(=O)NC1CCCC1)c1cccnc1 (configuration not stated) | i | 1e-09 | i | -0.5% | -1%[11.4 µM]
COc1c(Br)cc(Br)cc1/C=N/n1c(C)nnc1C | i | 2.6e-08 | i | 1.6% | 23%
Cc1ccc(NC(=O)NCC(c2cccnc2)N2CCOCC2)cc1 (configuration not stated) | i | 6.5e-09 | i | -0.8% | 2%
CN(c1ccc(OCC(=O)N2CCCCC2)cc1)S(=O)(=O)c1cccs1 | i | 3.4e-08 | i | 0.0% | -1%[11.4 µM]
CCOC(=O)c1ccc(N2C(=O)CC(N(C)CCc3ccc(OC)c(OC)c3)C2=O)cc1 (configuration not stated) | / | / | / | 1.4% | -4%
CC(=O)c1cccc(NC(=O)C2CCCN(S(C)(=O)=O)C2)c1 (configuration not stated) | i | 1e-09 | i | 0.0% | -1%
N#Cc1ccc(C23CC4CC(CC(C4)C2)C3)[nH]c1=O | i | 1e-09 | i | 2.4% | 8%
CCc1c(C)sc(NC(=O)OC)c1C(=O)N1CCOCC1 | / | / | / | 1.0% | 12%
CN1CC[C@@]23c4ccccc4N[C@H]1[C@]21CCN(C)[C@@H]3Nc2ccccc21 | i | 1e-09 | i | -1.9%[25.7 µM] | -5%[25.6 µM]
CS(=O)(=O)N(CC(=O)NC1CCCC1)c1ccc2c(c1)OCCO2 | i | 4e-08 | i | 1.5% | 2%
CC1CCCN(Cc2nc3c(c(=O)n(C)c(=O)n3C)n2CC(=O)c2ccccc2)C1 (configuration not stated) | / | / | / | -3.8% | 24%
CCOC(=O)N1CCC(NS(=O)(=O)c2cc(Br)cc3c2N(C(=O)CC)CC3)CC1 | i | 4.6e-09 | i | -2.1% | 7%[11.4 µM]
CCOc1cc(C2C(C(=O)OC(C)C)=C(C)N=C3SCCC(=O)N32)ccc1OC(C)=O (configuration not stated) | i | 3.5e-09 | i | -2.3% | -5%

Structures listed so far that contain an NH in an aromatic ring (7):
SMILES | Resorufin fluor | A647 autofl | A488 fluor | AID923 | TSHR ag
CCOC(=O)c1ccc(Nc2ncnc3nc[nH]c23)cc1 | i | 2.6e-08 | i | -0.9% | 2%[11.4 µM]
Nc1nc(SCC(=O)NCc2ccccc2)n[nH]1 | i | 2.2e-08 | i | -3.1% | 2%
COCc1n[nH]c(=S)n1-c1cccc2ccccc12 | i | 4.5e-09 | i | / | /
CCOC(=O)c1sc2nc(CSCC(=O)OCc3ccc(C(=O)OC)o3)[nH]c(=O)c2c1C | i | 2.4e-08 | i | 5.8% | 3%
COc1cc(OC)cc(-c2nc(N)n[nH]2)c1 | i | 1e-09 | i | -1.0% | 8%
Cc1ccc(NC(=O)N2CCC(c3nc4c(nnn4Cc4cccc(Cl)c4)c(=O)[nH]3)CC2)cc1 | i | 4.5e-08 | i | -2.1% | 11%
N#Cc1ccc(C23CC4CC(CC(C4)C2)C3)[nH]c1=O | i | 1e-09 | i | 2.4% | 8%

The list is partial; the hit share may differ from the screen's.
